From PubChem BioAssay
PKD1 inh = inhibitors of human PKD1 kinase, biochemical, fluorescence polarization | Serine/threonine-protein kinase D1 (Homo sapiens), Q15139 | PKD1 kinase fluorescence polarization assay | inhibition, %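 (about 10 µM by stock and volumes)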 | hit rate 0.056% among 200,000;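 active = inhibition of 50% or more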;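 also: controls were vehicle for no effect and a reference inhibitor for full effect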
Target sequence (Q15139 whole entry, looked up): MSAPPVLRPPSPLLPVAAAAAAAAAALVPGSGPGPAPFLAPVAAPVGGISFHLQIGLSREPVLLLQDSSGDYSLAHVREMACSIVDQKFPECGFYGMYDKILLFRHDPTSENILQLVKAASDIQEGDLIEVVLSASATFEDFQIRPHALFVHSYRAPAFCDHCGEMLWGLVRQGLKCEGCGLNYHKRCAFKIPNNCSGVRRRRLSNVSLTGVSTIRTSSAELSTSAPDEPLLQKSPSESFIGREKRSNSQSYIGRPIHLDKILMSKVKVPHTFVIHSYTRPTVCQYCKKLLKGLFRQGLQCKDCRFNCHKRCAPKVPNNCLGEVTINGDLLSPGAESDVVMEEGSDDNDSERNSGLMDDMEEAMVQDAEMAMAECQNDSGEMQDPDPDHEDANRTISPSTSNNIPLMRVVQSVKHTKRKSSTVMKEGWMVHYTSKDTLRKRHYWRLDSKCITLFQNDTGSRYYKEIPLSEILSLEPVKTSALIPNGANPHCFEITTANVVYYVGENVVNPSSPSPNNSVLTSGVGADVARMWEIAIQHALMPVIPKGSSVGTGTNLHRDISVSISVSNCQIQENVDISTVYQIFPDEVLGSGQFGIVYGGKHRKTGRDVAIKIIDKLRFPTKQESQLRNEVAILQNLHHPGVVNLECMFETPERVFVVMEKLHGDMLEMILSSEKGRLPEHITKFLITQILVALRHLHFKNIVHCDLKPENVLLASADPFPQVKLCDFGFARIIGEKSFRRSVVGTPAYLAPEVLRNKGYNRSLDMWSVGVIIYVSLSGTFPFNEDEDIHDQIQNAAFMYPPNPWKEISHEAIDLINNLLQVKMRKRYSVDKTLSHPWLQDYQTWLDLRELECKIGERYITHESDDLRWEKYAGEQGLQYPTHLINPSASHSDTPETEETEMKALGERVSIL
RGS16-Gao HTS = modulators of RGS16 binding to Galphao, primary screen, biochemical, human proteins, multiplexed bead flow cytometry; hit rate 0.38% among 220,000; binding response (% of control), % at 10 µM; AID 1441, 2008; bead-based flow cytometry RGS16-Galphao binding, fluorescence; actives lie on both sides; Regulator of G-protein signaling 16 (Homo sapiens) + Guanine nucleotide-binding protein …;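 active = below 25% or above 175%, edge rows of some plates excepted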;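 also: Galphao activated by GDP with aluminum fluoride before binding; 100% = wells without compound and 0% = beads without RGS; some results beyond the cut were filed as inactive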
INS promoter inh = inhibitors of insulin promoter-driven GFP, primary screen, imaging, TRM-6 cells (human fetal islet line), eGFP reporter, cell count; reporter expression induced with tamoxifen; inhibition, % at 2 µM; hit rate 0.9% among 130,000; AID 1273, 2008;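 active = inhibition above the mean plus 3 SD, with well images judged a real hit on visual review, cut at about 60% in these data, passing the limit was not always enough; inconclusive = inhibition over the cutoff but images rejected on review; inactive = inhibition not above the cutoff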
HSV augment = enhancers of HSV replication in host cells, fold increase, host cell viability; maximum fold increase; HSV replication augmentation in cells; AID 1956, 2009; hit rate 0.005% among 220,000;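 active = peak rise of 1.5-fold or more in the series; inconclusive = self-fluorescent or not available for retest; tested in PC3 cells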;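 also: first round at 10 µM; read as green reporter fluorescence; hits show the peak of a series up to 25 µM; 1 = signal of infected wells without compound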
GALR2 ag = GALR2 receptor agonists, primary screen, cell-based | AID 803, 2007 | Galanin receptor type 2 (Homo sapiens), O43603 | hit rate 0.48% among 140,000 | activation, %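 (tested at 5 µM)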 | GALR2-expressing cells, agonist activation read-out;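 active = above mean plus 3 SD of all compounds, about 5% in these data, not always enough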;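 also: 0% = vehicle buffer wells and 100% = reference agonist at full effect; tested in CHO reporter cells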
INS promoter inh cell count = second read-out of INS promoter inh, no call of its own (marks repeat the call); normalized cell count, %; measured here: cell count, toxicity; reference of the scale not given here;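 cells exposed to compound for 48 h; stained nuclei by imaging scaled within each plate; lower means fewer cells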
HSV augment primary fold = second read-out of HSV augment, no call of its own (marks repeat the call); fold increase; compound at 10 µM; measured here: primary screen fold increase 10 uM; tested in PC3 cells;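 GFP signal in the first replicate; 1 = infected wells without compound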
* = called active by the depositor; i = inactive; ? = inconclusive; . = no result given.

SMILES	PKD1 inh	RGS16-Gao HTS	INS promoter inh	INS promoter inh cell count	HSV augment	HSV augment primary fold	GALR2 ag
Cc1nc2cc(CC(=O)O)ccc2o1	-14	103	32	130	i	0.76	-1.0
CC1CCc2c(C(=O)NCCCN3CCOCC3)csc2C1 (stereo not drawn)	0	99	.	.	i	0.97	-0.4
Oc1ccc(-c2csc(-c3cccnc3)n2)c(O)c1	3	93	.	.	i	0.78	.
Cc1c(C(=O)Nc2ccc(OCc3ccccc3)cc2)cccc1[N+](=O)[O-]	3	103	.	.	i	0.8	-1.2
Cc1cccc2cc(C3CC(c4cccs4)=NN3C(=O)CCC(=O)O)c(Cl)nc12 (stereo not drawn)	4	157	0	88	i	1	0.5
CC(=O)C(=Nc1ccccc1Cl)NNc1ccc(Cl)cc1	-3	101	75*	111*	i	1	-2.0
NC(=O)C1=C[C@H](c2csc3ccccc23)C[C@H](OCc2ccc(CO)cc2)O1	4	105	.	.	i	0.94	.
O=C(CN1CCCC1)NCC12CC3CC(CC(C3)C1)C2	-10	91	36	101	i	0.8	-1.6
COc1ccc(Cl)cc1N(C(C)C(=O)O)S(C)(=O)=O (stereo not drawn)	-2	97	21	108	i	0.92	.
CC(=O)Nc1ccc(-c2cn3ccsc3n2)cc1	-5	103	-31	167	i	0.9	-0.6
CC(=O)Nc1cccc(C(=O)OC(C(=O)c2ccc(C)c(C)c2)c2ccccc2)c1 (stereo not drawn)	9	103	-10	101	i	0.89	0.5
CCOc1cc(Br)c(/C=C2/C(=O)N(C)C(=S)N2CC(=O)OC)cc1OC	6	106	14	134	?	.	.
c1ccc(OCc2nnc3sc(-c4cccs4)nn23)cc1	5	71	.	.	i	0.95	-3.0
Cc1ccc(C2=NNC(C(O)C(O)C(O)C(O)CO)S2)cc1 (stereo not drawn)	-11	100	0	68	i	0.99	0.1
CCO[C@@H]1OC(C(=O)N2CCN(Cc3ccc4c(c3)OCO4)CC2)=C[C@H](c2ccc3c(c2)OCO3)[C@H]1CCCO	4	95	.	.	i	0.82	.
COc1ccc(C(OC(=O)c2c(C)noc2C)C(=O)NC2CCCC2)cc1 (stereo not drawn)	3	102	20	221	i	1.1	-1.6
S=c1nc(C2CCCCC2)[nH]c2ccccc12	-1	95	28	133	i	0.89	.
Cc1cc(C)nc(NC(=O)CSc2nnnn2-c2ccccc2)n1	2	89	11	62	i	0.87	-0.7
COC(=O)CSc1nc2ccc(C)cc2[nH]1	3	104	-22	107	i	1.1	-1.8
COc1ccccc1-n1c(SCC(=O)Nc2cccc3ccccc23)nc(O)cc1=O	0	98	-33	153	i	0.98	-2.5
Cc1ccc(S(=O)(=O)Nc2ccc3c(c2)nc(CCN2CCCCC2)n3C)cc1	.	95	.	.	i	1	.
O=C(c1ccccc1)c1nnc(-c2ccccc2F)o1	-12	99	-12	116	i	0.81	-2.0
Cc1cccc(Cl)c1NNC(=O)Nc1c([N+](=O)[O-])c(C)nn1C	.	100	.	.	i	1	.
Cc1noc(C)c1S(=O)(=O)Nc1ccc(C(=O)N2CCc3ccccc3C2)cc1	-9	101	.	.	i	0.94	-1.1
CSc1nsc(SCC(=O)N2CCc3ccccc32)n1	-2	101	-14	108	i	1.1	-1.6
COc1nc2c(C)cccc2cc1-c1noc(-c2ccco2)n1	-6	91	9	127	i	0.94	-0.3
CCCCc1nc2n[nH]c(N)c2c2c1CSC(C)(C)C2	-3	114	31	92	i	0.83	-0.5
Cc1cc(C)c2c(N)c(C(=O)NCc3ccco3)sc2n1	-4	101	42	89	i	1	0.0
Cc1ccc(C)c(S(=O)(=O)Nc2ccc3scnc3c2)c1	9	72	-21	86	i	0.93	-2.6
O=C(c1ccncc1)N1N=C(C2CCCCC2)CC1(O)C(F)(F)F (stereo not drawn)	-10	15	13	65	i	1	.
COc1ccc(CNC(=O)C(c2ccc(C)cc2)N(Cc2cccs2)C(=O)c2ccc3c(c2)OCCO3)cc1 (stereo not drawn)	-1	95	-4	107	i	0.97	-0.7
O=C(Cn1cnc2c(nnn2Cc2ccccc2F)c1=O)NCc1ccco1	3	100	-50	117	.	.	1.0
CC(=O)N1[C@H](C)C=C[C@]1(Cc1ccccc1)C(=O)O	4	102	23	77	i	1.2	-0.5
COc1ccc(-n2c(-c3cccc(C)c3[N+](=O)[O-])n[nH]c2=S)cc1	-12	101	.	.	i	1	-3.9
Cc1c(NC(=S)N/N=C\c2ccccc2O)c(=O)n(-c2ccccc2)n1C	-3	105	.	.	i	0.82	-0.4
Cc1c(NC(=O)c2cc3ccccc3c(=O)s2)c(=O)n(-c2ccccc2)n1C	5	105	.	.	i	0.88	-3.3
Cc1noc(C)c1Cn1nc(C(=O)O)c2ccccc2c1=O	5	102	3	86	i	0.91	-2.0
Cc1ccc(C(=O)N/N=C/c2ccc(-c3cccc(C(F)(F)F)c3)o2)cn1	.	97	.	.	i	0.76	.
C/C(=N\OC(=O)c1cccc(C(F)(F)F)c1)c1sc(-c2ccccc2)nc1C	-20	105	12	87	.	.	-1.9
COCCn1c(SCC(=O)c2ccc3c(c2)OCCO3)nnc1-c1ccco1	0	101	.	.	i	1.2	-0.5
Cc1ccc(S(=O)(=O)NCC(=O)OCC(=O)NC(=O)NC2CCCC2)cc1	-9	94	.	.	i	0.99	.
CC(C)(C)c1n[nH]c(=S)n(/N=C/c2cccs2)c1=O	-9	77	20	101	i	1	-1.1
CCOc1ccc(C(=O)NC(=S)N(Cc2ccccc2)Cc2ccccc2)cc1	5	87	0	96	i	0.85	-2.7
Cc1ccc(N(Cc2cc3ccccc3[nH]c2=O)C(=O)c2ccco2)c(C)c1	-6	41	46	127	i	0.99	0.4
COc1cc(C(=O)NC(C(=O)Nc2cccc(C(C)=O)c2)C(C)C)cc(OC)c1OC (stereo not drawn)	3	107	50	116	i	0.88	.
CC(=O)c1ccc(NC(=O)CC23CC4CC(C2)CC(n2nnc(C)n2)(C4)C3)cc1	-12	100	64	81	i	1.2	.
COC(=O)c1cc(NC(=O)CSc2nnc(N)s2)ccc1Cl	11	109	.	.	i	1	.
CCOC(=O)Cc1csc(NS(=O)(=O)c2ccc(OC)cc2)n1	-6	100	.	.	i	0.71	.
Cc1ccc(C)c(C(=O)n2cnnc2N)c1	-5	100	37	135	i	0.85	0.1
CS(=O)(=O)N(CCc1ccccc1)CC(=O)NCc1ccncc1	-6	108	6	124	i	0.89	0.0

Next section.
SMILES	PKD1 inh	RGS16-Gao HTS	INS promoter inh	INS promoter inh cell count	HSV augment	HSV augment primary fold	GALR2 ag
COc1ccc(OC)c(NC(=O)Nc2cccc(Cn3cccn3)c2)c1	1	103	-100	131	i	0.95	-1.7
C/C(Cl)=C\Cn1c(=O)c2c(nc3n2CCS3)n(C)c1=O	-10	100	.	.	i	0.94	-3.4
CCc1ccccc1NC(=O)c1ccccc1Sc1ccc([N+](=O)[O-])cc1Cl	-8	95	-11	109	i	0.94	-0.4
CCn1nnc(NC(=O)c2ccc(C(C)(C)C)cc2)n1	-4	105	.	.	i	0.96	-0.7
CC1=Nc2ccccc2/C1=C\c1nc(-c2ccc(F)cc2)oc1O	-3	106	34	194	i	0.95	-1.6
Nc1nc(SCCO)[nH]c(=O)c1NC(=O)c1ccccc1F	2	103	.	.	i	0.91	.
O=C(O)CCC(=O)Nc1ccc(Cc2ccc(NC(=O)CCC(=O)O)cc2)cc1	-2	103	.	.	i	0.99	-0.5
CCn1c(=O)c(-c2cc(=O)[nH][nH]2)c(O)c2ccccc21	3	102	13	48	i	0.85	.
O=C(O)C1C2C=CC(O2)C1C(=O)NCCCn1ccnc1 (stereo not drawn)	-6	111	50	73	i	0.94	-3.0
Cn1cnc(S(=O)(=O)Nc2cc(C(F)(F)F)ccc2N2CCOCC2)c1	.	98	.	.	i	0.9	.
CCn1cc([N+](=O)[O-])c(C(=O)N2CCCC2)n1	-1	100	10	87	i	0.94	-3.1
CCn1nc(C)c(CNC(=O)c2cc(COc3ccc(F)cc3Cl)on2)c1C	.	102	.	.	i	0.98	.
CCCC(C(=O)OCC)P(=O)(c1ccccc1)c1ccccc1 (stereo not drawn)	-4	102	-45	93	i	1	-0.2
COc1ccc(Nc2nc(N)nc(CN(C)C3CCCCC3)n2)cc1	-4	107	-74	40	i	0.85	-1.7
CN1CCN(NS(=O)(=O)c2cccs2)CC1	-11	33	-3	63	i	1.1	-0.1
COC(=O)c1c(C)[nH]c(C(=O)/C=C/c2ccccc2F)c1C	.	100	.	.	i	1.1	.
COc1ccccc1NCCC(=O)OCC(=O)Nc1ccc(Cl)cn1	3	106	.	.	.	.	-0.8
CN(Cc1cnn(C)c1)Cc1nc(Cc2ccccc2Cl)no1	2	103	.	.	i	0.98	.
CNC(=O)N(O)C1N(NC(=O)Nc2cccc3ccccc23)C(=S)SC1(C)C (stereo not drawn)	10	96	-127	73	i	0.99	-0.4
C/C(CC(=O)Nc1ccccc1)=N\NC(=O)COc1ccc(C)cc1Br	-9	97	.	.	i	1.2	.

A run of entries taken from the entries so far, as a working copy:
SMILES	PKD1 inh	RGS16-Gao HTS	INS promoter inh	INS promoter inh cell count	HSV augment	HSV augment primary fold	GALR2 ag
COc1ccc(Nc2nc(N)nc(CN(C)C3CCCCC3)n2)cc1	-4	107	-74	40	i	0.85	-1.7
CN1CCN(NS(=O)(=O)c2cccs2)CC1	-11	33	-3	63	i	1.1	-0.1
COC(=O)c1c(C)[nH]c(C(=O)/C=C/c2ccccc2F)c1C	.	100	.	.	i	1.1	.
COc1ccccc1NCCC(=O)OCC(=O)Nc1ccc(Cl)cn1	3	106	.	.	.	.	-0.8
CN(Cc1cnn(C)c1)Cc1nc(Cc2ccccc2Cl)no1	2	103	.	.	i	0.98	.
CNC(=O)N(O)C1N(NC(=O)Nc2cccc3ccccc23)C(=S)SC1(C)C (stereo not drawn)	10	96	-127	73	i	0.99	-0.4
C/C(CC(=O)Nc1ccccc1)=N\NC(=O)COc1ccc(C)cc1Br	-9	97	.	.	i	1.2	.

The list goes on.
SMILES	PKD1 inh	RGS16-Gao HTS	INS promoter inh	INS promoter inh cell count	HSV augment	HSV augment primary fold	GALR2 ag
CCOc1ccc(C2C(C#N)=C(N)Oc3cc(C)oc(=O)c32)cc1 (stereo not drawn)	1	103	-33	191	i	0.83	.
Cc1nc(N(C)C)ncc1C(=O)O	4	99	-2	138	i	1	-0.8
CN1CCN(S(=O)(=O)c2ccc(Sc3nnnn3-c3ccccc3)c([N+](=O)[O-])c2)CC1	-6	99	17	84	i	0.5	-1.5
Cc1nc2scc(-c3ccc(C(C)(C)C)cc3)c2c(=O)n1N	-7	102	0	109	i	0.85	.
O=c1[nH]c(-c2ccncc2)nc2ccccc12	-8	81	14	48	i	1	-0.9
Cc1cccn2cc(-c3ccc(S(=O)(=O)N4CCCCC4)cc3)nc12	-6	93	-41	170	i	0.86	.
CCN(CC)CC#CC(C)OCOCC#CCOC (stereo not drawn)	-5	102	29	122	i	1	-1.3
FC(F)Sc1ccc(NC(=S)NC2CCCC2)cc1	-8	116	27	111	i	0.88	.
Cc1cc(N2CCN(c3nc(-c4ccccc4)cs3)CC2)c2ccccc2n1	-11	106	.	.	i	0.85	.
CC(=O)NCc1nc2ccccc2n1C(C)C	-1	103	.	.	i	0.89	-1.4
Cc1cc(C)c(C(=O)CSc2nc(C)cc(C)c2C(N)=O)c(C)c1	4	86	.	.	i	1.1	0.2
O=C(O)C1CC=CCC1C(=O)NCCc1ccccc1 (stereo not drawn)	1	119	36	191	i	0.94	-0.9
CCOC(=O)CSc1nnc(-c2ccco2)n1C	5	97	69	80	i	1.1	-1.2
CN(C)c1ccc(C2C3=C(CCCC3=O)OC3=C2C(=O)CCC3)cc1	7	81	39	103	i	1.1	-0.4
CCc1ccc(-c2ccc(C(=O)O)c(C)n2)cc1	-9	78	14	102	i	1	-1.7
O=C(COc1ccc2c(c1)C(=O)CC1(CCCCC1)O2)NCc1ccccc1	1	104	-32	125	i	1.1	-0.1
COc1ccc(-c2nc3ccccc3c(=O)n2NC(=S)N(C)C)cc1	5	36	.	.	i	0.99	-0.4
COc1ccc(NC(=S)N(Cc2cccc(Br)c2)CC2CCC(C(=O)O)CC2)cc1 (stereo not drawn)	-2	106	.	.	i	1.1	.
CCOC(=O)CCNC(=O)Nc1ccc2nc(C)n(Cc3ccccc3Cl)c(=O)c2c1	-1	101	8	153	i	0.84	-0.7
